Menin MLL FP FL – menin-MLL binding inhibition, fluorescein peptide; AID 1766; Fluorescence polarization, fluorescein-MLL peptide displacement from menin; 290,000 tested, under 10 active; FP activity change, % at 61.4 µM; inconclusive = falling polarisation curve, or a change in total fluorescence; inactive = total fluorescence flat and polarisation flat or rising; no compound was filed as active; the % refers to the polarisation; negative = inhibition;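 note: % of control where 0% means no effect; inhibitors lower the polarisation; unlabelled MLL peptide was the positive control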
ClpP mod – qHTS Assay for Activators of ClpP; purified B. subtilis ClpP, FRET peptide cleavage, 20 min; AID 651965, 2013; Potency, µM (series often up to 57.5 µM), for the others: at the top dose activity change, negative = active; 340,000 tested, 1.9% active; active = well fitted falling curve with a large enough effect; inconclusive = small, poorly fitted or top-dose-only effect; inactive = no such curve, though single readings can be large or run the other way; note: potency is the fitted concentration of half-maximal effect; the source files actives as falling curves though it sought activators and does not explain the sign; nearly all actives have a fitted effect of over 65% in size; many hits overshoot -100%
Target sequence (P80244 whole entry, looked up): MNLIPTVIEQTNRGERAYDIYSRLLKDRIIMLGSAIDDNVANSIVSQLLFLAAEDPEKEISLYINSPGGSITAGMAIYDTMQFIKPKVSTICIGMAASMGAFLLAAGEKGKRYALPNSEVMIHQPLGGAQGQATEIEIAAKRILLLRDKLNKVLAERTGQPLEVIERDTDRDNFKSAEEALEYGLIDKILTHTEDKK
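Purified B. subtilis ClpP, 10 microg/mL final in Tris/HCl pH8 with KCl, BSA, glycerol and Tween-20, cleaved an Abz/nitrotyrosine-quenched decapeptide. Fluorescence (ex 320, em 430) was read at 0 and 20 min at room temperature. Delta was normalized to 5.8 microM ADEP and DMSO/no-enzyme controls.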
gsp antagonist – antagonizes gsp, the McCune-Albright syndrome mutation. gsp-mutant cells, cAMP HTRF, 30 min; control for the full effect not named in the record. Potency, µM (titrated, usually from 76.9 µM), without a hit: at the highest dose activity change, negative = inhibition, most hits filed as inhibitors. 340,000 tested, 0.4% active. AID 624288; active = falling curve of any shape with a large fitted effect; inconclusive = falling curve, mostly with a smaller effect; inactive = flat or rising curve; cell line not stated here;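 note: intracellular cAMP measured with PDE inhibitor Ro 20-1724 present during compound exposure; potency is the fitted concentration of half-maximal effect; % is set by controls: 0 for no effect and ±100 for the full control effect; nearly all actives have a fitted effect of over 65% in size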
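Cells in G418 medium, seeded 16-24 h, 37C; buffer exchange to DPBS + 1 mM CaCl2, 0.5 mM MgCl2, 0.05% BSA; cpds in DMSO + […] (300 uM stock), 30 min 37C; HTRF cAMP detection.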
Sfp inh – blocks B. subtilis Sfp PPTase activity. Q9F4F7. Biochemical Sfp PPTase activity, qHTS. Potency, µM, for the others: max response, negative = inhibition, actives largely listed as inhibitors. 310,000 tested, 3.5% active. AID 1490; active = well fitted inhibition curve with a large enough effect; inconclusive = small, poorly fitted or top-dose-only effect, or another doubt; inactive = no such curve, though single readings can be large or run the other way;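 note: the enzyme is Sfp with the accession as filed and its product quenches rhodamine fluorescence; potency is the fitted concentration of half-maximal effect; 0% = enzyme reaction without inhibitor and -100% = no enzyme wells; top concentration of the series not given in the record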
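Fluorescence-quenching assay with 15 nM Sfp, 5 uM rhodamine-CoA and 12.5 uM BHQ-2-labelled ybbR peptide in pH 7.6 Hepes/MgCl2 buffer. Enzyme was pre-incubated with compound for 15 min at room temperature. Rate was taken from the 30-min fluorescence change (525/598 nm).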
gsp agonist – activates gsp, the McCune-Albright syndrome mutation. Potency, µM (doses to about 76.9 µM), for inactives: at the top dose activation (cAMP increase), most hits filed as activators. gsp mutant cells, cAMP HTRF, 30 min; control for the full effect not named in the record. 340,000 tested, 0.13% active. AID 624287; active = well fitted activation curve with a large enough effect; inconclusive = small, poorly fitted or top-dose-only effect, or another doubt; inactive = no such curve, though single readings can be large or run the other way; cell line not stated here;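 note: phosphodiesterase inhibitor Ro 20-1724 added with compounds to block cAMP breakdown; potency is the fitted concentration of half-maximal effect; nearly all actives have a fitted effect of over 60% in size; about a fifth of the inactives were tested at one dose only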
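Cells stably selected in G418 were plated at 2000/well, grown 16-24 hr, then given compounds in DMSO with the PDE inhibitor […] (300 uM solution added) for 30 min at 37C; cAMP was read by HTRF.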
CtBP-E1A blk – CtBP/E1A binding inhibition; AlphaScreen GST-E1A/His-CtBP binding, 1536-well; stronger effect = lower value; control for the full effect not named in the record; activity change, % (test concentration not listed); 340,000 tested, 0.49% active; in the data active means activity change below about -65%; inconclusive means about -30% to -65%; inactive means above about -30%; note: % is set by controls: 0 for no effect and ±100 for the full control effect; compound concentration not given in the record
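Homogeneous bead-based format: GST-tagged E1A captured on glutathione donor beads, His-tagged CtBP on nickel acceptor beads; compounds precede bead addition by 2 h at 37 °C.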
TRPV1 PAM – human TRPV1 potentiation. Q8NER1. TRPV1-expressing cells, Fluo-8 calcium influx, capsaicin EC20 potentiation; host cell line not named in the record; control for the full effect not named in the record. potentiation, % at 8.33 µM. 320,000 tested, 0.02% active. AID 540277; active means potentiation above 80%; inconclusive means 30% to 80%; inactive means below 30%; note: 0% is about no effect
Target sequence (Q8NER1 whole entry, looked up): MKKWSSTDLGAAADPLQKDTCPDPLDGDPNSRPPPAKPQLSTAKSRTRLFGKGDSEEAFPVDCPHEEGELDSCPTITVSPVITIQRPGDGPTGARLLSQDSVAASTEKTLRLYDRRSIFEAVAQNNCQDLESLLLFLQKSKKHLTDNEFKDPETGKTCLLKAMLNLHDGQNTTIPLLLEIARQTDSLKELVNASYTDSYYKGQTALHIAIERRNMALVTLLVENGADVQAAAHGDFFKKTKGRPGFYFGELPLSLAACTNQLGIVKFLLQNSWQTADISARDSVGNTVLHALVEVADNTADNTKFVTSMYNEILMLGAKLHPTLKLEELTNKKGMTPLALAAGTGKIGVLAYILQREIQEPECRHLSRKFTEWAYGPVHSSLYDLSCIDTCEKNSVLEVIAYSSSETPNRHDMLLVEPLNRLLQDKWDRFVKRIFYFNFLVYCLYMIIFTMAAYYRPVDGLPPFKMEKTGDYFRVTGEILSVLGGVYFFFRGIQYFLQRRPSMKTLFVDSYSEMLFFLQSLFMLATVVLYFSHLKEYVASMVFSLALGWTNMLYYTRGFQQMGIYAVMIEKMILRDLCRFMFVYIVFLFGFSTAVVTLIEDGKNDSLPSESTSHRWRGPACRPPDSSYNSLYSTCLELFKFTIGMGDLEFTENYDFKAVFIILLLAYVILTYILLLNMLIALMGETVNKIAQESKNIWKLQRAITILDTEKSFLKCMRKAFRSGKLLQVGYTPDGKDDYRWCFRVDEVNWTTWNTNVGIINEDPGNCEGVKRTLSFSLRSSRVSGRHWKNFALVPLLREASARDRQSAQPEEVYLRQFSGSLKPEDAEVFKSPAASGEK
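Cells expressing TRPV1 were dye-loaded with Fluo-8 and read kinetically: 10 s baseline, 3 min after compound (agonist portion), then 2 min after EC20 capsaicin (allosteric enhancer portion). Calcium-bound dye fluorescence at 480/520 nm.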
The depositor's hits bear a star; ? = inconclusive; . = not tested or not shown; [ ] = dose if it differs, or a comment.

SMILES | Menin MLL FP FL | ClpP mod | gsp antagonist | Sfp inh | gsp agonist | CtBP-E1A blk | TRPV1 PAM
CCN(CC)N=Nc1ccc(C(=O)O)cc1 | 7.2 | -8.5% | -2% | 1% | -25% | 0 | -13
O=C(Cc1c(F)cccc1Cl)Nc1cc(S(=O)(=O)N2CCCCC2)ccc1N1CCOCC1 | 2.4 | . | -15% | 7% | 7%[15.4 µM] | -19 | -21
Cc1cccc(C)c1NC(=O)c1cnn(-c2ccccc2)c1C | -2.5 | -1.6% | -1% | 6% | -1%[15.4 µM] | 0 | 6
C=C(C)Cn1c(SCC(=O)N/N=C/c2c(O)ccc3ccccc23)nc2ccccc2c1=O | 22 | -0.6% | 1% | -3% | -6%[15.4 µM] | 2 | 2
CC1=C(C(=O)OC2CCCCC2)C(c2cccnc2)n2nnnc2N1 (configuration not stated) | 3.7 | -1.6% | -7% | 6% | 17%[15.4 µM] | -13 | -7
CN1CCN(S(=O)(=O)c2ccc(Br)c3nsnc23)CC1 | 4.0 | -1.8% | 6% | 5% | 15% | -5 | -14
CCOC(=O)c1c(/N=C/C2=C(O)CC(C)(C)CC2=O)sc2c1CCCC2 | 0.7 | . | 1% | 6% | 0%[15.4 µM] | 2 | 0
Cc1ccc(S(=O)(=O)N2C[C@@H]3[C@H]4CC[C@H](C4)[C@@H]3[C@@H](C)[C@@H]2c2cn(Cc3ccccc3)c3ncccc23)cc1 | . | ? | 3% | . | . | -15 | .
CCOC(=O)C1=C(COC(=O)C(CC)c2ccccc2)NC(=O)NC1C (configuration not stated) | . | 1.9% | 2% | . | 24% | -2 | 0
COc1c(NC=O)c2c(c([N+](=O)[O-])c1OC)C(=O)OC2 | . | . | -4% | . | 9% | -3 | .
Cn1c(=O)c(C(=O)NC2CCCCCCC2)c(O)c2ccccc21 | 3.5 | -2.4% | 20% | -7% | -85%[inhibitor] | 7 | -1
O=C(Nc1ccccc1)c1cc(Cl)nc2ccccc12 | -2.5 | 1.7% | 12% | 11% | -7% | -20 | -5
CCCc1c(C(=O)N/N=C(\C)CCc2ccc(OC)cc2)nnn1-c1nonc1N | 2.1 | -0.4% | -7% | 10% | 28% | -1 | -5
CC(=O)Oc1c(S(=O)(=O)c2ccc(C)cc2)c(C)nn1C(C)(C)C | 4.2 | -1.9% | 5% | -2% | -28% | -4 | .
COc1ccc(/C=C/c2ccc3cccc(O)c3n2)cc1Br | -1.6 | -0.9% | -11% | 18% | 10% | . | 5
COc1ccc2sc3c(=O)[nH]c4ccccc4c3c2c1 | -0.6 | ? | ? | 6% | ? | -25 | -9
COc1cccc(N=Cc2ccc(O)cc2O)c1 | 0.2 | -0.1% | -1% | 4% | -5% | 9 | ?
CC(=O)c1ccccc1NS(=O)(=O)c1ccccc1Cl | 2.0 | . | -2% | 16% | 15%[15.4 µM] | 4 | 3
O=C(NC(=S)Nc1ccccc1)c1cc(-c2ccccc2)nc2ccccc12 | . | -1.2% | -3% | 6% | -1% | -12 | 10
Cc1ccccc1NC(=O)c1c(C)nn(-c2ccccc2)c1Cl | 1.0 | -0.9% | 6% | -10% | 17%[15.4 µM] | -16 | -11
Cc1ccnc(NS(=O)(=O)c2ccc(NC(=O)c3ccc([N+](=O)[O-])s3)cc2)n1 | 2.2 | 2.4% | -10% | -1% | ? | ? | 3
CCNC(=O)COC(=O)/C=C/c1c(C)nn(Cc2cccc(OC)c2)c1Cl | 1.2 | -0.2% | -4% | 0% | -1%[15.4 µM] | -3 | -2
Cc1nc2ccccn2c1C(=O)NNC(=S)Nc1ccc(Cl)cc1 | 3.0 | 127% | -20% | 0% | 3%[15.4 µM] | 2 | 10
Cc1oc(C)c2c(=O)ccc3c(c12)OC(N)=C(C#N)C3c1ccc(F)cc1 (configuration not stated) | ? | -1.6% | 1% | ? | -45%[inhibitor] | -6 | 6
O=C(CN1C(=O)c2cccc3cccc(c23)C1=O)NCCN1CCOCC1 | -6.4 | 4.0% | 13% | -3% | ? | 3 | -2
Cc1ccc(S(=O)(=O)N(C)C)cc1NC(=O)C1Cc2ccccc2CN1C(=O)c1ccco1 (configuration not stated) | -0.1 | . | -4% | 2% | -5% | -19 | -1
O=C(O)CC(c1cccc(O)c1)N1Cc2ccccc2C1=O (configuration not stated) | -1.9 | 0.0% | 5% | 15% | 3% | . | 18
COc1ccc(C(=O)N2CCNC(=O)C2CC(=O)Nc2cc(Cl)ccc2OC)cc1 (configuration not stated) | -0.5 | . | 9% | 10% | 23% | 2 | 1
O=C(NC1CCS(=O)(=O)C1)c1cn(-c2ccccc2)nc1-c1ccccc1 (configuration not stated) | 3.1 | -0.7% | -2% | 3% | -22% | 4 | -2
COc1ccccc1CNC(=O)C1CCN(S(=O)(=O)c2ccc3c(c2)OCCCO3)CC1 | -0.4 | 3.3% | -6% | 10% | -34%[inhibitor] | 3 | 0
COC(=O)CC1NCCNC1=O (configuration not stated) | -1.1 | -0.8% | 11% | 11% | -27% | 1 | 3
CC(C)c1nnc(NC(=O)c2nc(S(=O)(=O)Cc3ccccc3F)ncc2Cl)s1 | . | 0.1% | ? | -24% | -3% | -23 | ?
Cc1ccc(/C(O)=C2/C(=O)C(=O)N(c3ccccn3)C2c2ccc([N+](=O)[O-])cc2)cc1 (configuration not stated) | -3.3 | 1.3% | -21% | 6% | -16% | . | -1
COc1ccccc1CCC(=O)OCC(=O)Nc1cc(S(=O)(=O)N2CCOCC2)ccc1C | . | . | -4% | . | 9%[15.4 µM] | 0 | -2
Cc1ccc(-n2nc3c(c2NC(=O)CC(C)C)CS(=O)C3)cc1 (configuration not stated) | 5.9 | 2.3% | -14% | -9% | -18% | 0 | -2
CCCC[C@@H]1C[C@H]1[C@@H](NC(=O)c1ccco1)c1ccccc1C(F)(F)F | . | 0.2% | -8% | . | 0% | 5 | .
O=C1c2ccccc2C(=O)C1(CO)c1ccccc1 | -5.9 | . | -3% | 14% | -8%[15.4 µM] | 0 | 2
NC(=O)C1CCN(S(=O)(=O)c2cccc(C(=O)O)c2)CC1 | -1.5 | 2.1% | 13% | 4% | -20% | -1 | 17
Cc1cc(OCC(O)CN2CCCC2)ccc1C(C)C (configuration not stated) | 3.3 | 1.2% | 8% | 8% | -20% | . | -2
CS(=O)(=O)N1CCN=C1SCc1cccc(F)c1 | . | 1.3% | 10% | 11% | -5% | . | -4

Rewritten as labelled records: part of the list above
> CCOC(=O)C1=C(COC(=O)C(CC)c2ccccc2)NC(=O)NC1C (configuration not stated)
- Menin MLL FP FL: .
- ClpP mod: 1.9%
- gsp antagonist: 2%
- Sfp inh: .
- gsp agonist: 24%
- CtBP-E1A blk: -2
- TRPV1 PAM: 0
> Cc1ccc(-n2nc3c(c2NC(=O)CC(C)C)CS(=O)C3)cc1 (configuration not stated)
- Menin MLL FP FL: 5.9
- ClpP mod: 2.3%
- gsp antagonist: -14%
- Sfp inh: -9%
- gsp agonist: -18%
- CtBP-E1A blk: 0
- TRPV1 PAM: -2
> CC(C)c1nnc(NC(=O)c2nc(S(=O)(=O)Cc3ccccc3F)ncc2Cl)s1
- Menin MLL FP FL: .
- ClpP mod: 0.1%
- gsp antagonist: ?
- Sfp inh: -24%
- gsp agonist: -3%
- CtBP-E1A blk: -23
- TRPV1 PAM: ?
> COc1cccc(N=Cc2ccc(O)cc2O)c1
- Menin MLL FP FL: 0.2
- ClpP mod: -0.1%
- gsp antagonist: -1%
- Sfp inh: 4%
- gsp agonist: -5%
- CtBP-E1A blk: 9
- TRPV1 PAM: ?

Other entries
SMILES | Menin MLL FP FL | ClpP mod | gsp antagonist | Sfp inh | gsp agonist | CtBP-E1A blk | TRPV1 PAM
COc1ccccc1-n1c(C)nc2cc(C(=O)NCC3CCCO3)ccc21 (configuration not stated) | . | -5.1% | 2% | -8% | -10% | -10 | -4
CN(C)C(=O)CCc1ccc2c3c([nH]c2c1)[C@]1(CCC2CCCC2)[C@@H](C(=O)N2CCOCC2)C[C@H](CC(=O)NCCc2ccccn2)C(=O)N1CC3 | . | -2.0% | -7% | . | . | 4 | .
COc1cc(C2Nc3c(F)cccc3C3C=CCC32)cc(Br)c1OC (configuration not stated) | 2.2 | . | 1% | 40µM* | -4% | 6 | 5
O=S(=O)(NCCSc1nnnn1-c1ccccc1)c1cccs1 | 1.5 | ? | 0% | 9% | -26% | 0 | 12
CC(OC(=O)C1CC(=O)N(Cc2ccco2)C1)C(=O)Nc1ccc(F)cc1Cl (configuration not stated) | . | 0.2% | -2% | . | -4% | 5 | -10
COc1cccc(OC)c1C(=O)Nc1ccc2nc(C)c(C)nc2c1 | -1.3 | -21% | -1% | 18% | 2% | . | 7
Cc1noc(C)c1C(=O)N1CCCC(C(=O)c2cccc(C(F)(F)F)c2)C1 (configuration not stated) | -0.1 | . | 7% | 2% | -15%[15.4 µM] | 7 | 9
O=C(O)C(Cc1ccccc1)N1Cc2ccccc2C1=O (configuration not stated) | -2.0 | 1.2% | -1% | 33%[activator] | 1% | 7 | 8
COC(=O)C1CC(=O)c2sccc2C1 (configuration not stated) | 9.9 | -2.2% | -5% | 1% | 14%[15.4 µM] | 8 | -1
COc1ccc(NC(=O)CSc2nc3ccccc3cc2Cc2ccccc2)cc1 | 7.4 | -2.7% | 7% | 12% | -25% | -5 | .
Cc1ccc(S(=O)(=O)N2CCN(C)CC2)cc1[N+](=O)[O-] | 4.5 | -1.5% | 11% | 2% | 4% | -2 | 4
CCn1ccnc1CN(C)Cc1cn(-c2ccccc2)nc1-c1ccc(OC)cc1F | 2.2 | -7.9% | -3% | 8% | -37%[inhibitor] | -25 | -16
Cc1cc(/C=N/NC(N)=S)c(C)n1-c1ccc(Cl)c(Cl)c1 | 1.8 | . | 17% | ? | -2%[15.4 µM] | -14 | 1
CCC(C)NC(=O)CSc1nnc(-c2ccc(OC)c(OC)c2)c(-c2ccc(OC)c(OC)c2)n1 (configuration not stated) | 0.6 | -2.1% | -4% | -6% | -4% | . | 10
CC1(C)CC(=O)C2=C(C1)NC(Nc1nc3ccccc3o1)=NC2c1ccccn1 (configuration not stated) | -1.6 | . | ? | 13% | 22%[15.4 µM] | -10 | 17
CCOC(=O)N1CCN(Cc2nc(C3CC3)no2)CC1 | -2.4 | . | 2% | 7% | -3%[15.4 µM] | 3 | 6

High-throughput results: PubChem BioAssay, National Center for Advancing Translational Sciences (NCATS)
